Source: PubChem BioAssay (National Center for Advancing Translational Sciences (NCATS))
Bst PK mod: modulators of Bacillus stearothermophilus pyruvate kinase. 1.2% of 51,000 active. Potency, µM. partly purified Bacillus stearothermophilus pyruvate kinase, luminescence ATP production; ribose 5-phosphate activator present at AC10. AID 361; in the data active means potency below about 11 µM; inconclusive means mostly about 12 µM to 25 µM; inactive means weaker than that;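 the screen sought inhibitors and activators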;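 note: potency is the fitted concentration of half-maximal effect; scaled between full activation by ribose 5 phosphate and full inhibition by luteolin; about four in five hits inhibit and the cells do not say which; series up to 57 µM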
YjeE inh: inhibitors of E. coli YjeE (TsaE); purified YjeE, fluorescence polarisation of a bound ADP probe; P0AF67; 0.05% of 71,000 active; Potency, µM; AID 605; active = well fitted falling curve; inconclusive = weaker or top-dose-only fall, or a rising curve; inactive = flat or poorly fitted curve;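 note: top concentration of the series not given in the record; excess ADP was the control for the full effect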
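Fluorescence polarization of a BODIPY Texas Red–ADP probe (2 uM) bound to purified YjeE (10 uM) was read after 15 min room-temperature incubation with compounds. Loss of polarization marks inhibitors; ADP serves as titrated control.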
Numbers without * were called inactive; i = inactive; ? = inconclusive; / = not tested or not shown.

Bst PK mod | YjeE inh | smiles
/ | i | C[C@@H](C(=O)NCc1ccc(S(C)(=O)=O)cc1)[C@@H]1C[C@@]1(C)[C@@H](NC(=O)OCc1ccccc1)c1ccccc1
>26 | / | COc1ccc(OCC(O)CN2C(=O)NC(C)(C)C2=O)cc1 (centres undefined)
>57 | i | Cc1cc(C(=O)CN2C(=O)NC3(CCCCC3)C2=O)c(C)n1Cc1ccc2c(c1)OCO2
/ | i | CCNc1ncc2nc(-c3ccc(Cl)cc3)c(=O)n(CCC#N)c2n1
11* | i | Cc1ccnc(Nc2nc(-c3c(C)nc4sccn34)cs2)c1
/ | i | Cc1ccc(OCC(=O)Nc2ccc(N3CCCC3)cc2)cc1C
/ | i | CCCOc1cccc(C(=O)Nc2cccc(NC(=O)c3ccco3)c2)c1
>57 | i | CCCn1c(N)c(N(C)C)c(=O)n(CC(=O)Nc2ccc(OC(F)(F)F)cc2)c1=O
>57 | i | CC(C)c1[nH]nc2c1C1(CCN(Cc3ccccc3)CC1)C(C#N)=C(N)O2
>57 | i | CC1(C)CC(c2csc(N)n2)CCO1 (centres undefined)
/ | i | CN(C)Cc1ccccc1
>57 | i | COc1ccc(-n2c(=O)cc(N3CC(C)OC(C)C3)[nH]c2=O)cc1 (centres undefined)
>57 | i | Cc1ccc(NCc2nnc(SCC(=O)OC3CCCCC3)o2)c(C)c1
>57 | i | Cc1c(C(=O)O)sc2ncn(C)c(=O)c12
>57 | i | COC(=O)COc1ccc(S(=O)(=O)Nc2ccc(NC(C)=O)cc2)cc1C
>57 | i | CC(C)CN1CN(S(=O)(=O)c2cccs2)c2nc3ccccc3nc21
/ | i | COc1cccc(Nc2ncnc3c2cnn3C)c1
>57 | i | CCCn1cnc2c(c1=O)c1nc3ccccc3nc1n2CCc1ccccc1
>57 | i | CCOC(=O)c1c(C)c(C(=O)NCc2ccccn2)c(C)n1CC
>57 | i | Cc1nn(-c2ccc(F)cc2)c2c1cc(C#N)c1nc3ccccc3n12
>57 | i | O=C1COc2ccc(C(=O)c3ccccc3)cc2CN1
>57 | i | Cc1sc2nc(CN(Cc3cccs3)C(=O)C3CC3)[nH]c(=O)c2c1C
>57 | i | CN(C1CCCCC1)S(=O)(=O)c1ccc(Cl)c(C(=O)O)c1
>57 | i | CC(C)(C)n1ncc2c(=O)n(CC(=O)NC3CCCCC3)cnc21
/ | i | CC(=O)c1sc2ccccc2c1OC(=O)c1ccco1
/ | i | Cc1cc(NC(=O)CCCS(=O)(=O)c2nc(-c3cccs3)cc(C(F)(F)F)n2)no1
>26 | / | COC(=O)CNc1nc(-c2cccnc2)nc2ccccc12
/ | i | CC(=O)O[C@H]1CC[C@]2(C)C(=CC[C@H]3[C@H]4C[C@H]5O[C@]6(CC[C@H](C)CN6)[C@H](C)[C@@H]5[C@]4(C)CC[C@@H]32)C1
/ | i | COc1ccc(-c2nc(CS(=O)CC(=O)NCc3ccco3)c(C)o2)cc1OC (centres undefined)
>57 | i | COc1ccc(N2CCN(C(c3ccccc3OC)c3nnnn3C3CCCC3)CC2)cc1 (centres undefined)
>26 | / | Cn1c(N2CCOCC2)nc2c1c(=O)n(Cc1ccc(Cl)cc1)c(=O)n2C
>57 | i | CC(=O)C1C(c2ccc(F)cc2)NC(=O)NC1(O)C(F)(F)F (centres undefined)
>57 | i | CCc1nnc(NS(=O)(=O)c2ccc(N3C(=O)C4CC=C(Cl)CC4C3=O)cc2)s1 (centres undefined)
/ | i | Cc1noc(/C=C/N(C)C)c1S(=O)(=O)N1CCCC(C(=O)NCc2cccs2)C1 (centres undefined)
>57 | i | O=C(c1ccc(F)cc1)N1C2CCC1CC(O)(c1ccccc1F)C2 (centres undefined)
>57 | i | O=C(Nc1cccnc1)c1ccc(NC(=O)c2ccco2)cc1
/ | i | NC(=O)c1ccc([N+](=O)[O-])cc1
>57 | i | OC(COCc1cccs1)CN1CCN(c2ccccn2)CC1 (centres undefined)
>57 | i | CC(=O)Nc1ccc(OCC(O)CN2CCN(c3cc(Cl)ccc3C)CC2)cc1 (centres undefined)
/ | i | Cc1cc(Nc2ccc(Br)c(C)c2)n2nc(C)nc2n1
/ | i | COCCn1c(SCC(N)=O)nc2c(c1=O)SC(C)C2 (centres undefined)
>26 | / | Cc1nn(C)cc1C1C2=C(CC(C)(C)CC2=O)OC2=C1C(=O)CC(C)(C)C2
? | i | COc1cccc(C2CC(c3ccccc3Cl)Nc3nc(N)nn32)c1 (centres undefined)
>11 | / | c1coc(-c2nnc3sc(Cc4cccs4)nn23)c1
/ | i | O=C1OCCN1/N=C\c1ccc([N+](=O)[O-])o1
/ | i | CCCc1cc(=O)n2[nH]c(NCc3ccccc3Cl)nc2n1
>57 | i | COc1ccc(NC(C)=O)cc1NC(=O)CSc1nnc(-c2ccccc2)n1N
>57 | i | CC(C)c1nnc(NC(=O)CCC(=O)Nc2ccc(F)cc2)s1
/ | i | COC(=O)c1ccc(COc2ccc3c(C)c(C)c(=O)oc3c2)o1
? | i | CCOC(=O)c1[nH]cnc1C(=O)Nc1ccncc1

Compound profiles (already shown).
Entry for `c1coc(-c2nnc3sc(Cc4cccs4)nn23)c1` : Bst PK mod: >11; YjeE inh: /
Entry for `O=C(c1ccc(F)cc1)N1C2CCC1CC(O)(c1ccccc1F)C2` (centres undefined) : Bst PK mod: >57; YjeE inh: i

Carrying on.
Bst PK mod | YjeE inh | smiles
>57 | i | CCOC(=O)C1CCCN(C(=O)COC(=O)c2cc(=O)c3ccccc3o2)C1 (centres undefined)
>57 | i | CC(C)CC(C(=O)Nn1cnnc1)N1C(=O)c2ccccc2C1=O (centres undefined)
i | i | COc1cc2cc(C(=O)Nc3ccccc3)c(N)nc2cc1OC
>57 | i | Oc1ccccc1-c1nnc(SCCN2CCOCC2)n1Cc1ccccc1
>57 | i | Cc1csc(NC(=O)CCCSc2nc3ccccc3s2)n1
/ | i | CC(C)NC(=O)N1CCCC2(CCN(C(=O)c3cccc(F)c3)CC2)C1
/ | i | CCn1c(C(=O)N2CCc3ccccc3C2)cc2sccc21
>57 | i | Cc1nc(NC(=O)CSc2nc3cccnc3n2C2CCCCC2)sc1C
>57 | i | Cc1cc(CN2CCN(CCC#N)CC2)c(O)c(C2(C)CCCCC2)c1
/ | i | COc1cccc(Cn2c(=O)cnc3cnc(Nc4cccc(OC)c4)nc32)c1
>57 | i | O=C1CCC(C(=O)Nc2ccc(OC(F)F)cc2)N1 (centres undefined)
>57 | i | CCN(C(=O)c1coc(=O)c(Br)c1)c1ccc2c(c1)OCO2
>57 | i | CC(=O)NC1CC2CCCC(C1)N2C(=O)Nc1ccc(Cl)c(C(F)(F)F)c1 (centres undefined)
>57 | i | CC(C)OCC(O)Cn1c(N2CCCC2)nc2c1c(=O)[nH]c(=O)n2C (centres undefined)
/ | i | Cc1noc(C)c1C(=O)N1CCC2(CCCN(C(=O)Nc3cccc(F)c3)C2)CC1
>57 | i | c1ccc(Cc2nnc3sc(-c4ccccn4)nn23)cc1
/ | i | CCS(=O)(=O)N1CCN(c2nc(-c3ccccc3)cs2)CC1
/ | i | CCCc1cc(C(=O)NC2CCCCC2)no1
>57 | i | CCN1C(=O)c2ccc(C(=O)NCc3ccccc3)cc2C1=O
/ | i | Cc1ccc(Cl)cc1N1CCN(C(=O)COc2ccc(S(=O)(=O)NC(C)C)cc2)CC1
>57 | i | CC(C)(C)OC(=O)N[C@@H](Cc1ccccc1)c1nnc(SCC(=O)O)o1
>26 | / | CC(C)(C)n1nnc(CCc2nnn(C(C)(C)C)n2)n1
/ | i | COCCNS(=O)(=O)c1ccc(C2CNC(=O)C2)cc1 (centres undefined)
>57 | i | Cc1ccc(N(C(=O)C2CCCC2)C2C=CS(=O)(=O)C2)cc1C (centres undefined)
>57 | i | O=C(c1cccn2c(=O)c3ccccc3nc12)N1CCN(c2ccccn2)CC1

4 of the compounds above, as labelled records.
COc1cc2cc(C(=O)Nc3ccccc3)c(N)nc2cc1OC
  Bst PK mod: i
  YjeE inh: i
Oc1ccccc1-c1nnc(SCCN2CCOCC2)n1Cc1ccccc1
  Bst PK mod: >57
  YjeE inh: i
Cc1csc(NC(=O)CCCSc2nc3ccccc3s2)n1
  Bst PK mod: >57
  YjeE inh: i
CC(C)NC(=O)N1CCCC2(CCN(C(=O)c3cccc(F)c3)CC2)C1
  Bst PK mod: /
  YjeE inh: i

Additional structures
Bst PK mod | YjeE inh | smiles
? | i | CCc1ccc2nc(N3CCN(C)CC3)c(C#N)cc2c1
>57 | i | Cc1cc(NC(=O)c2cc3nc(C4CC4)cc(C(F)(F)F)n3n2)no1
>57 | i | CC(C)OC(=O)CSc1n[nH]c(-c2cccnc2)n1
/ | i | C[C@](N)(C(=O)O)c1ccc(-c2nn[nH]n2)cc1
>57 | i | Cc1ccc(CN2C3=NC(=O)CN3c3ccccc32)cc1
>57 | i | O=C(NCc1nc2ccccc2[nH]1)c1cc2ccccc2oc1=O
>57 | i | O=C(Nc1ccc2c(c1)OCO2)C(c1ccccc1)N1CCC2(CC1)OCCO2 (centres undefined)
>57 | i | CC(=O)Nc1ccc(S(=O)(=O)n2cnc(C)c2)cc1
>57 | i | COC(=O)c1ccc(C)c(NC(=O)CN2C(=O)c3ccccc3S2(=O)=O)c1
/ | i | Cc1cccc(N2CC(c3nc4ccccc4n3C)CC2=O)c1C (centres undefined)
>57 | i | CCOC(=O)CSc1nc2c(c(=O)n(Cc3ccccc3Cl)c(=O)n2C)n1C
>11 | i | Cc1ccc2nc(C3CCN(C(=O)NCc4ccccc4)CC3)[nH]c2c1
>57 | i | COCC(=O)n1nc(-c2ccccc2)nc1NCc1ccc(F)cc1
/ | i | CCCCCC(N)=O
>57 | i | CCOc1cc(-c2nn3cnnc3s2)cc(OCC)c1OCC
>57 | i | CCOC(=O)c1c(NC(=O)CSc2nnc(-c3ccco3)o2)sc(C(C)=O)c1C
>26 | / | CSC1=Nc2sc3c(c2C2=NCCN12)CC(C)(C)OC3
/ | i | CCc1cc2c(=O)c(-c3nc4ccccc4[nH]3)coc2c(CN2CCC(C)CC2)c1O
/ | i | Cc1ccc(-c2cc(-c3ccccc3Cl)c(C#N)c(N)n2)o1
/ | i | O=C1C(=C2CCCCC2)SC(=S)N1Cc1ccco1
/ | i | Cc1ccc(-c2nc(CS(=O)CC(=O)NCCCN3CC(C)CC(C)C3)c(C)o2)cc1 (centres undefined)
/ | i | CCN(CC)CCOc1cc2c(nn1)Oc1ccccc1N2C
>57 | i | CCOC(=O)Cc1csc(NS(=O)(=O)Cc2ccccc2)n1
>57 | i | CC(C)c1cc(NC(=O)C(C)(C)C)cc(C(C)C)c1O
/ | i | CN1C(=O)CCC1(O)c1ccccc1 (centres undefined)

A few values from the list:
Under Bst PK mod, CSC1=Nc2sc3c(c2C2=NCCN12)CC(C)(C)OC3 is entered as >26
Under Bst PK mod, CCOc1cc(-c2nn3cnnc3s2)cc(OCC)c1OCC is entered as >57

Remaining list, next part
Bst PK mod | YjeE inh | smiles
>57 | i | COc1ccc(OC)c(-n2nnnc2SCC(=O)Nc2ccc3c(c2)OCCO3)c1
>57 | i | CCOC(=O)c1cn(CC(=O)Nc2ccc(CC)cc2)nn1
>57 | i | COc1cccc(CNC(=O)C(CCSC)NS(=O)(=O)c2ccc3c(c2)oc(=O)n3C)c1 (centres undefined)
/ | ? | CSc1nc(N)c2ncn([C@@H]3O[C@@H](COP(=O)(O)OP(=O)(O)O)[C@@H](O)[C@H]3O)c2n1
>57 | i | CCOC(=O)C1=C(C)C(c2ccc(OC)cc2OC)NC(=O)N1 (centres undefined)
/ | i | O=C(Nc1sc2c(c1C(=O)O)CCCCC2)c1ccco1
>57 | i | O=C(NCc1cccc(F)c1)C1CCN(S(=O)(=O)Cc2ccccc2)CC1
/ | i | COc1cccc(-c2ccc3ncnc(NCCc4c[nH]c5ccc(OC)cc45)c3c2)c1
/ | i | CC12CCC(C(=O)N3CCCCC3)(CC1=O)C2(C)C (centres undefined)
/ | i | CN[C@@H](CC(C)C)C(=O)N[C@@H]1C(=O)N[C@H](CC(N)=O)C(=O)N[C@@H]2C(=O)N[C@H]3C(=O)N[C@H](C(=O)N[C@H](C(=O)O)c4cc(O)cc(O)c4-c4cc3ccc4O)[C@H](O)c3ccc(c(Cl)c3)Oc3cc2cc(c3O[C@H]2O[C@@H](CO)[C@@H](O)[C@@H](O)[C@@H]2O[C@@H]2C[C@](C)(N)[C@H](O)[C@H](C)O2)Oc2ccc(cc2Cl)[C@@H]1O
/ | i | Cc1c(Br)cc(C(=O)N2CCCC2)c(C)c1C
>57 | i | CS(=O)(=O)c1cccc(C(=O)Oc2ccccc2)c1
>57 | i | O=C(Oc1ccc(-c2nnco2)cc1)N(c1ccccc1)c1ccccc1
>57 | i | CC1CN(CC(=O)N2CCc3[nH]c4ccccc4c3C2)CC(C)O1 (centres undefined)
>57 | i | Cc1nc(-c2ccccc2)cc(=O)[nH]1
>57 | i | C/C(=C(\C#N)C(=O)NCCCN1CCOCC1)N(C)C
>57 | i | Cc1ccc(-c2nnn(CC(=O)N(CC(=O)NC3CCCC3)c3cnc4ccccc4c3)n2)o1
/ | i | CCCC(=O)OC(=O)CCC
>57 | i | Cn1c(=O)c2c(nc(CN3CCOCC3)n2CCc2ccccc2)n(C)c1=O
>57 | i | CCOC(=O)C1(C)NC(c2ccc(OC)c(OC)c2)C2C(=O)N(CC)C(=O)C21 (centres undefined)
>57 | i | CCN1CCN(C(c2cccs2)C(C)NC(=O)c2cccnc2)CC1 (centres undefined)
>57 | i | CCCCn1c(SCc2cc(=O)n3ccsc3n2)nc2cc(C(=O)OC)ccc2c1=O
>57 | i | CC1=C(C(=O)Nc2ccccc2)C(c2ccco2)n2ncnc2N1 (centres undefined)

An excerpt; the hit share may differ from the screen's.
